D2 agonist: human D2 receptor agonism in beta-arrestin assay; P14416; DiscoveRx PathHunter D2 beta-arrestin, luminescence, 90 min; 100% = 57 uM dopamine signal; activation, % (test concentration not listed); 360,000 compounds, 0.084% hits; AID 624465; in the data active = activation above about 40%; inconclusive = about 15% to 40%; inactive = below about 15%; further: compound concentration not given in the record; the text of the record calls up to 30% inactive
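DiscoveRx PathHunter D2 beta-arrestin cells (2,100/well) attached overnight, then compound-stimulated 90 min at 37 C in HBSS/10 mM HEPES/0.1% Tween-20 buffer; beta-galactosidase complementation read by luminescence after 1 h at ambient temperature. Dopamine 57 uM final (EC100) as control.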
D2 potentiator: human D2 receptor positive allosteric modulation; DiscoveRx D2 beta-arrestin cells, luminescence, 90 min; 100% = 57 uM dopamine signal; potentiation, % (test concentration not listed); 360,000 compounds, 0.23% hits; P14416; AID 624464; active = potentiation of 50% or more; inconclusive = 30% to 50%; inactive = 30% or less;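 further: compound concentration not given in the record; tested on top of an EC20 dose of dopamine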
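D2 cells co-treated with compound plus 50 nM dopamine (EC20) for 90 min at 37 deg C to detect potentiation. Beta-arrestin recruitment was read as enzyme-fragment luminescence after 1 h at ambient temperature. Full response was set by 57 uM dopamine.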
gsp ag: agonists of gsp mutant (McCune-Albright syndrome); 340,000 compounds, 0.13% hits; gsp mutant cells, cAMP HTRF, 30 min; control for the full effect not named in the record; Potency, µM (highest dose often 76.9 µM), for inactives: at the highest dose activation (cAMP increase), most hits filed as activators; AID 624287; active = well fitted activation curve with a large enough effect; inconclusive = small, poorly fitted or top-dose-only effect, or another doubt; inactive = no such curve, though single readings can be large or run the other way; cell line not stated here;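 further: phosphodiesterase inhibitor Ro 20-1724 added with compounds to block cAMP breakdown; potency means the concentration at half of the fitted maximal effect; nearly all actives have a fitted effect of over 60% in size; about a fifth of the inactives were tested at one dose only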
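Cells in DMEM/10% FBS with G418 were pretreated with compounds in DMSO plus […] (300 uM stock) for 30 min at 37C. cAMP was measured by HTRF (cAMP-d2 plus anti-cAMP antibody-K) after 30 min at room temperature.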
Six1-Eya2 blk: blocks human Six1 binding to Eya2. Q15475+O00167. AlphaScreen GST-Six1/His-Eya2 binding, biochemical; hits give low values; control for the full effect not named in the record. AID 651725. 360,000 compounds, 0.56% hits. activity change, % (no concentration beside the values); in the data active = activity change below about -65%; inconclusive = about -30% to -65%; inactive = above about -30%; further: on the % scale 0 is the no-effect control and ±100 the full control effect
Target sequence (O00167 whole entry, looked up): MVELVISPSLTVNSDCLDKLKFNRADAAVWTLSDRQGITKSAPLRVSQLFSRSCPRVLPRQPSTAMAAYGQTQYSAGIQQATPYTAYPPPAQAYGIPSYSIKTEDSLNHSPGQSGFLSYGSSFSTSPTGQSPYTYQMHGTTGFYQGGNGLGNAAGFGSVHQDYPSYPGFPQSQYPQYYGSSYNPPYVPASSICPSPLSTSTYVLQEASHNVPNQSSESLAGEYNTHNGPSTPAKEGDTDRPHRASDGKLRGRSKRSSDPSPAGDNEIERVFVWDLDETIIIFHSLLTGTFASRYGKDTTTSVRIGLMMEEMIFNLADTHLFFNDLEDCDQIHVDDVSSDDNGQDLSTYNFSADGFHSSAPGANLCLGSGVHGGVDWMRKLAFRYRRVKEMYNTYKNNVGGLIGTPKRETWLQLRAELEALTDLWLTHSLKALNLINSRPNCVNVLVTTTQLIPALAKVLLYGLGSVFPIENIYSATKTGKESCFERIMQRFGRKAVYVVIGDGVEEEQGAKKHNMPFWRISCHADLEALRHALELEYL
Target sequence (Q15475 whole entry, looked up): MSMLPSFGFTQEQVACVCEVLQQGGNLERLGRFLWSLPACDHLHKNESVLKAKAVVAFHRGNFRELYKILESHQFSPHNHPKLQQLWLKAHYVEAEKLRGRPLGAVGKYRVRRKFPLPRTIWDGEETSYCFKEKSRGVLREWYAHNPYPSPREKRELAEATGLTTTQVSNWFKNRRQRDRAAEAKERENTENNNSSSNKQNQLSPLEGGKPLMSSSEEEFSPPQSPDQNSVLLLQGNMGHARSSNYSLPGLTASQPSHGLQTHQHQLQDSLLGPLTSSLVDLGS
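Compounds are tested against tagged Six1 and Eya2 proteins bridged by glutathione donor and nickel acceptor beads; after a one-hour incubation at 37 °C without light, AlphaScreen emission is recorded.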
CtBP-E1A blk: blocks the CtBP interaction with E1A; 340,000 compounds, 0.49% hits; activity change, % (no concentration beside the values); AlphaScreen GST-E1A/His-CtBP binding, 1536-well; hits give low values; control for the full effect not named in the record; AID 651724; in the data active means activity change below about -65%; inconclusive means about -30% to -65%; inactive means above about -30%; further: on the % scale 0 is the no-effect control and ±100 the full control effect
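Protein mix (5X: 125 nM each GST-E1A, His-CtBP) was incubated with pinned compound 2 h at 37 deg C in dark, in 50 mM Tris pH 8.0 buffer with 300 mM NaCl. Glutathione donor and nickel acceptor beads followed; AlphaScreen signal read after 1 h.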
gsp antagonist: gsp mutant antagonism. Potency, µM (top dose mostly 76.9 µM), for inactives: at the highest dose activity change, negative = inhibition, hits mostly inhibitors. AID 624288. 340,000 compounds, 0.4% hits. gsp-mutant cells, cAMP HTRF, 30 min; control for the full effect not named in the record; active = falling curve of any shape with a large fitted effect; inconclusive = falling curve, mostly with a smaller effect; inactive = flat or rising curve; cell line not stated here;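 further: intracellular cAMP measured with PDE inhibitor Ro 20-1724 present during compound exposure; potency means the concentration at half of the fitted maximal effect; on the % scale 0 is the no-effect control and ±100 the full control effect; nearly all actives have a fitted effect of over 65% in size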
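G418-selected cells were plated in DMEM/10% FBS for 16-24 h at 37C, then treated with compounds plus the PDE inhibitor […] (300 uM solution added) for 30 min at 37C. Intracellular cAMP was measured by HTRF after 30 min lysis at room temperature.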
* hit, by the source's call; u = inconclusive; x = not tested or not shown; [ ] = dose if it differs, or a comment.

entry	canonical_smiles	D2 agonist	D2 potentiator	gsp ag	Six1-Eya2 blk	CtBP-E1A blk	gsp antagonist
1	CCCC(CCC)c1nnc(NC(=O)c2ccco2)s1	-0.7	4	6%[15.4 µM]	-19	4	-7%
2	C/C=C(\C)c1nnc(NC(=O)OCC)s1	-2.8	-3	-55%[inhibitor]	2	6	1%
3	CCN(c1ccc(Cl)cc1)S(=O)(=O)c1nnc(NC(=O)C(C)C)s1	-0.4	3	-7%	3	1	7%
4	O=S(=O)(NCc1ccccn1)c1ccccn1	-2.2	-7	x	-16	-15	8%
5	COc1ccc(NC(=O)COc2cccc3c2CCN(Cc2cccnc2)C3=O)cc1	-1.8	-7	14%	-4	3	-9%
6	CCOc1cc(CNCCc2ccccc2)ccc1OCC(=O)NC(C)(C)C	-4.7	-30	-42%[inhibitor]	-10	-2	-1%
7	O=C(O)COCC(=O)Nc1ccccc1-c1ccccc1	-5.2	0	-2%[15.4 µM]	10	x	-5%
8	O=C(Nc1cc(Cl)ccc1Oc1ccccc1)c1ccccc1F	-6.7	-8	-53%[inhibitor]	42	-3	11%
9	COc1ccc([C@H]2C[C@@H](n3cc(C4CC4)nn3)[C@H](O)CN2Cc2cccs2)cc1	-4.3	-5	-107%[inhibitor]	-11	-2	x
10	CC(C)CN1C(=O)c2ccc(C(=O)Nc3c[nH]c(=O)[nH]c3=O)cc2C1=O	3.0	-1	-2%[15.4 µM]	3	-1	x
11	CCN1C(=O)/C(=c2\sc3nc(=O)c(Cc4ccccc4)nn3c2=O)c2ccccc21	-4.5	-6	0%[15.4 µM]	1	0	13%
12	COc1ccc(NC(=O)COc2ccc3c(C)cc(=O)oc3c2)cc1S(=O)(=O)N1CCCCC1	1.5	-2	11%[15.4 µM]	1	3	18%
13	CN(Cc1ccco1)C(=O)CN1C(=O)NC2(CCCCC2)C1=O	7.1	-3	-8%	3	x	3%
14	COc1ccc(NC(=O)COC(=O)c2ccc([N+](=O)[O-])o2)cc1Cl	-3.0	2	-41%[inhibitor]	1	3	4%
15	CCc1noc(C)c1C(=O)OC(C)C(=O)Nc1ccccc1OC (stereo not drawn)	0.4	18	-1%[15.4 µM]	2	8	4%
16	COc1ccc(C2/C(=C(/O)c3ccc(C)cc3)C(=O)C(=O)N2C)cc1 (stereo not drawn)	-2.3	-7	31%	7	-3	-11%
17	CCN(CC)c1ccc(/C=N/NC(=O)C2CC2)cc1	-0.5	-18	19%	-2	-15	-13%
18	CCSc1nc(=S)n(CC)c(C)c1C(C)=O	0.5	-4	-36%[inhibitor]	0	8	0%
19	Cc1cccc(C(=O)NC2CCN(C(=O)Nc3ccccc3C)CC2)c1	8.3	-132	-184%[inhibitor]	-7	x	9%
20	CCc1nc2sc3c(c2c(=O)o1)CCCC3	-1.1	4	9%	13	-3	-3%
21	CN1CCN(CCNC(=O)c2cn(Cc3ccccc3F)nn2)CC1	2.0	-4	1%	-1	4	6%
22	Cc1nnc(SCC(=O)Nc2ccc(Cl)cn2)[nH]c1=O	1.0	-17	-15%	-3	-1	6%
23	O=C(O)/C(=C/c1ccco1)NC(=O)c1ccc(Br)o1	-1.3	-14	21%[15.4 µM]	4	-2	-6%
24	Cc1cc(C)c(C)c(/C=C(/C#N)C(N)=S)c1C	1.0	-18	-23%	-8	-5	-1%

An excerpt from above, reduced to CtBP-E1A blk.
nr	Compound	CtBP-E1A blk
15	CCc1noc(C)c1C(=O)OC(C)C(=O)Nc1ccccc1OC (stereo not drawn)	8
9	COc1ccc([C@H]2C[C@@H](n3cc(C4CC4)nn3)[C@H](O)CN2Cc2cccs2)cc1	-2
22	Cc1nnc(SCC(=O)Nc2ccc(Cl)cn2)[nH]c1=O	-1
16	COc1ccc(C2/C(=C(/O)c3ccc(C)cc3)C(=O)C(=O)N2C)cc1 (stereo not drawn)	-3
1	CCCC(CCC)c1nnc(NC(=O)c2ccco2)s1	4

The list continues.
entry	canonical_smiles	D2 agonist	D2 potentiator	gsp ag	Six1-Eya2 blk	CtBP-E1A blk	gsp antagonist
25	CCOC(=O)[C@H]1[C@H]2COc3ccc(Br)cc3[C@@H]2N2C(=O)N(c3ccccc3)C(=O)[C@@]12C	4.5	2	6%	-9	4	-3%
26	O=C(O)Cn1nnc(-c2ccc(OCc3ccccc3)cc2)n1	0.5	1	-38%	1	3	4%
27	CN(C)S(=O)(=O)c1ccc(C(=O)NCC(C)(C)CN=C2NS(=O)(=O)c3ccccc32)cc1	6.8	-3	36%	0	0	5%
28	COc1cc(C(=O)NCCC2=CCCCC2)ccc1OCc1c(C)noc1C	-7.6	-3	27%	6	-2	4%
29	COCCN1C(=O)C(=O)/C(=C(/O)c2ccc(S(=O)(=O)N3CCOCC3)cc2)C1c1ccc(O)cc1 (stereo not drawn)	-2.3	-5	12%[15.4 µM]	-6	5	7%
30	N#C/C(=N\Nc1ccccc1)C(N)=S	-11	-29	2%[15.4 µM]	-2	-2	-10%
31	Cc1cccc(NC(=O)CSCC(=O)Nc2cc(Cl)ccc2N2CCN(C)CC2)c1	-3.6	-13	-11%	6	1	-5%
32	COc1ccccc1NC(=O)c1ccc(NC(=O)CN2C(=O)CN(C)C2=O)cc1	-2.2	-11	-12%[15.4 µM]	13	5	7%
33	Cc1cc(S(=O)(=O)N2CCC3(CC2)OCCO3)c(C)cc1Cl	-1.6	-11	-1%[15.4 µM]	10	1	-2%
34	CC(=O)NNC(=O)c1cc2c3ccccc3n(C)c2s1	-1.9	-12	-30%	0	-7	7%
35	O=C(COC(=O)/C=C/c1cccc(Cl)c1)Nc1ccc2[nH]c(=O)[nH]c2c1	-2.9	-4	0%[15.4 µM]	-12	-6	-3%
36	CC(C)[C@H](NC(=O)c1ccco1)C(=O)NC12CC3CC(CC(C3)C1)C2	7.9	-9	-28%	6	-20	3%
37	O=C(NCc1ccccc1)C(=O)NCC1OCCN1S(=O)(=O)c1ccc([N+](=O)[O-])cc1 (stereo not drawn)	u	8	25%	0	x	7%
38	Cc1ccc(OCCCn2c(=O)sc3ccccc32)cc1	-2.1	-2	1%	40	38	u
39	COc1ccc(Br)c(C(=O)N2CCN(S(=O)(=O)/C=C/c3ccccc3)CC2)c1	-4.7	-3	-12%[15.4 µM]	-8	-2	-7%
40	Cc1ccc2cc(CN(CC3CCCO3)C(=S)NCc3ccco3)c(=O)[nH]c2c1 (stereo not drawn)	-0.4	2	5%[15.4 µM]	-1	-1	-9%
41	O=[N+]([O-])c1ccc(NC(c2ccccc2)c2ccc3cccnc3c2O)cc1 (stereo not drawn)	-2.6	-1	-12%	-18	-20	7%
42	O=C(CCCN1C(=O)c2cccnc2C1=O)Nc1ccc(Br)cc1	-19	-6	-2%[15.4 µM]	-7	-9	1%
43	CCNC(=O)C1CCCN(C(=O)c2cccc3ccccc23)CC1 (stereo not drawn)	-2.7	-10	x	1	2	x
44	CC(C)CN1CCN(CCCOC(=O)Nc2cccc3ccccc23)CC1C (stereo not drawn)	-1.5	-13	-23%	4	0	3%
45	O=C(Cc1ccccc1[N+](=O)[O-])Nc1cccc(S(=O)(=O)NC2=NCCCCC2)c1	-5.0	-9	-4%	7	-11	-9%
46	COc1ccc(N2CCN(C(=O)COC(=O)c3cccc(OC)c3O)CC2)cc1	-3.4	-3	u	-4	1	-3%
47	CC(C)c1ccc(NC(=O)Nc2nc(C(N)C3CCCCC3)cs2)cc1 (stereo not drawn)	3.6	-7	x	-11	-6	x
48	O=c1ccnc(SCCc2ccc([N+](=O)[O-])cc2)[nH]1	3.7	3	25%	1	2	-7%
49	Cc1ccc(NC(=O)C(=O)NN=C2CCCC2)cc1C	4.1	4	6%[15.4 µM]	-5	-9	x
50	CCC1=C2CC[C@H]3C(=O)N(CC)C(=O)[C@H]3[C@H]2[C@@]2(Cc3ccccc3)C(=NCc3ccccc3)OC(=O)N2C1=O	-0.5	-1	x	-4	-13	-1%
51	O=C(Nc1ccncc1)C1CCN(S(=O)(=O)c2ccc(Cl)cc2)CC1	-0.1	2	26%[15.4 µM]	1	3	1%
52	O=C(CN1C(=O)NC2(CCCC2)C1=O)Nc1ccc(Cl)cc1C(F)(F)F	-3.3	-11	-6%	-2	-12	10%
53	COc1cc(C(=O)N2CCCCC2c2cc(C(=O)NCc3cccnc3)no2)cc(OC)c1C (stereo not drawn)	-2.7	-2	x	2	-14	x
54	COc1ccc(CN(C)C(=O)C23CC4CC(CC(C4)C2)C3)c(OC)c1	-0.7	-2	-90%[inhibitor]	-11	-7	-4%
55	CSc1nc(N2CCOCC2)c2sccc2n1	-7.7	-3	-2%	-9	-16	5%
56	Cc1cccc(OCC(=O)N/N=C/CC(C)c2ccccc2)c1C (stereo not drawn)	-1.4	-15	-44%[inhibitor]	-11	8	-7%

Reprinted, entries 55–56
entry	canonical_smiles	D2 agonist	D2 potentiator	gsp ag	Six1-Eya2 blk	CtBP-E1A blk	gsp antagonist
55	CSc1nc(N2CCOCC2)c2sccc2n1	-7.7	-3	-2%	-9	-16	5%
56	Cc1cccc(OCC(=O)N/N=C/CC(C)c2ccccc2)c1C (stereo not drawn)	-1.4	-15	-44%[inhibitor]	-11	8	-7%

Continued:
entry	canonical_smiles	D2 agonist	D2 potentiator	gsp ag	Six1-Eya2 blk	CtBP-E1A blk	gsp antagonist
57	CC(C)C#Cc1cnc2c(c1)C(=O)N([C@H](C)CO)C[C@@H](C)[C@H](CN(C)C(=O)Nc1ccccc1F)O2	-6.9	7	-52%[inhibitor]	7	3	x
58	CC(=O)Nc1ccc(S(=O)(=O)NNc2cccc(C)c2)cc1	1.1	-1	2%	0	4	1%
59	CCc1cccc(CC)c1NC(=O)C(CC)Sc1nc2ccncc2[nH]1 (stereo not drawn)	-1.7	-8	u	1	-6	-7%
60	CC(=O)NC1(c2ccccc2)CCN(Cc2nnnn2C(C)(C)C)CC1	-1.1	-23	27%	-1	-1	7%

High-throughput results as filed in PubChem BioAssay.
